Vaccinia mCherry: vaccinia inhibition (mCherry reporter); Potency, µM (doses to about 36.5 µM), for the others: at the highest dose activity change, negative = inhibition, hits mostly inhibitors; Vaccinia virus mCherry reporter infection, fluorescence; about a quarter of the inactives have no number; hit rate 0.63% among 310,000; active = well fitted inhibition curve with a large enough effect; inconclusive = small, poorly fitted or top-dose-only effect; inactive = no such curve, though single readings can be large or run the other way; tested in A549 cells; note: nearly all actives have a fitted effect of over 35% in size; inactives centre near -10
Vaccinia Venus: inhibitors of vaccinia virus (Venus reporter) | hit rate 0.46% among 330,000 | Potency, µM (highest dose often 36.5 µM), without a hit: top-dose activity change, negative = inhibition, hits mostly inhibitors | Vaccinia virus Venus reporter expression, fluorescence | AID 720580; active means well fitted inhibition curve with a large enough effect; inconclusive means small, poorly fitted or top-dose-only effect; inactive means no such curve, though single readings can be large or run the other way; tested in A549 cells; note: nearly all actives have a fitted effect of over 30% in size; inactives centre near -10
* hit, by the source's call; i = inactive; ? = inconclusive; . = no result given; [ ] = dose if it differs, or a comment. % is set by controls: 0 for no effect and ±100 for the full control effect; potency is the fitted concentration of half-maximal effect.

SMILES	Vaccinia mCherry	Vaccinia Venus
COc1ccc(OC)c(NC(=O)COCc2cc(-c3ccco3)on2)c1	-14%	-6%
O=C(Nc1ccc(C(=O)O)cc1)/C(=C\c1ccc(F)cc1)NC(=O)c1ccco1	-2%	-3%
CCOC(=O)N1CCC(NC(=O)c2oc3c(c2C)-c2[nH]ncc2CC3)CC1	-6%	-3%
O=C(NC(=S)NC12CC3CC(CC(C3)C1)C2)c1ccc(F)cc1	-21%	-14%
O=C(CN1C(=O)c2ccc([N+](=O)[O-])cc2C1=O)NCCC1=CCCCC1	-4%	3%
CCC(=O)c1ccc(OCC(=O)N(CC)CC2COc3ccccc3O2)cc1 (centres undefined)	-18%	-7%
COc1cccc(C2(CC(=O)N3CCN(c4ccccc4O)CC3)CC(=O)N(C3CCCC3)C2=O)c1 (centres undefined)	-3%	-24%
CC(Sc1cccc[n+]1[O-])C(=O)Nc1cc(Cl)c(Cl)cc1Cl (centres undefined)	i	-20%
O=C(CCn1c(=S)[nH]c2ccccc2c1=O)NCCSCc1ccccc1	?	-6%
CCC1CCCCN1S(=O)(=O)c1cc2c3c(c1)CC(=O)N3CCC2 (centres undefined)	-14%	-11%
Cc1cn(C)c(CC(=O)Nc2cccc(C#N)c2)c1C(=O)O	-8%	2%
CC(CSc1nnnn1-c1ccccc1)Cn1c(N2CCN(C)CC2)nc2c1c(=O)[nH]c(=O)n2C (centres undefined)	-12%	-14%
Cn1c(N)c(C(=O)COC(=O)/C=C/c2ccc(Cl)cc2)c(=O)n(C)c1=O	-14%	-21%
CCn1c(SCc2nc3ccccc3c(=O)[nH]2)nnc1C(C)NC(=O)c1ccccc1 (centres undefined)	i	-11%
NC(=O)C1=C[C@H](C2CCCCC2)C[C@H](OCc2ccc(CO)cc2)O1	i	-2%
COc1ccc(/C=C/c2nnc(NC(C)=O)s2)cc1	i	1%
CC(C)=CC1C(CO)C1(C)C (centres undefined)	i	0%
Cc1ccc(-n2ncc3c2CCCC3NC(=O)CCC2=NNC(=O)CC2)cc1C (centres undefined)	-15%	-6%
Cc1cc(C)cc(NC(=O)CSc2oc(-c3cccs3)nc2S(=O)(=O)c2ccccc2)c1	-13%	-4%
CCOc1ccc(/C=N/NC(=O)C(O)c2ccccc2)c(O)c1 (centres undefined)	?	-30%
Cc1cc(C)n2c(SCC(=O)Nc3ccc(F)cc3F)nnc2n1	i	-19%
O=c1[nH]c(SCc2c(Cl)cccc2Cl)nc2ccccc12	-13%	-9%
Cc1cccc(CN2CCN([C@@H]3CS(=O)(=O)N[C@H]3COCc3ccccc3)CC2)c1	i	-8%
S=C(Nc1ccc(Cl)c(Cl)c1)N1CCN(c2ccccn2)CC1	-1%	-8%
O=S(=O)(c1cccc(C(F)(F)F)c1)N1CCN(c2cnccn2)CC1	i	-8%
C/C(=N\NC(=S)Nc1cccc(C)c1)c1cc2ccccc2o1	-5%	1%
Cc1cccc(C(=O)NC2CC(C)(C)NC(C)(C)C2)c1	.	-14%
O=C(Cn1ncc2ccccc21)N1CCc2ccccc21	-13%	-3%
COc1cc2c(cc1NC(=O)C(C)Sc1ccc(C)cc1)oc1ccccc12 (centres undefined)	-28%	-26%
Cc1cc(C)nc(SCC(=O)N/N=C/c2cccc([N+](=O)[O-])c2)n1	i	-6%
Oc1ccc2[nH]ccc2c1	-8%	-22%
CCOC(=O)CCn1nc(-c2ccc(Cl)cc2)cc1N	-11%	-3%
CC(CN(C(N)=O)c1ccccc1O)C(=O)O (centres undefined)	.	5%
Cc1ccc(C(=O)C2=C(O)C(=O)N(Cc3cccnc3)C2c2ccc(Br)cc2)o1 (centres undefined)	i	-5%
NC(=O)Cn1cnc2c(nnn2-c2ccc(F)cc2)c1=O	-14%	6%
O=C(NCc1cccc(F)c1)c1cccc(NC(=O)c2nsc3ccccc23)c1	-12%	-7%
COc1cccc(CNC(=O)CN2N=C(c3ccc(C)cc3)CCC2=O)c1	-12%	-9%
Cc1ccc2cc3cc(C(=O)N4CCN(C(=O)c5ccco5)CC4)sc3nc2c1	.	-17%
Cc1ccccc1CSc1ncc(CO)n1Cc1ccc(F)cc1	-16%	0%
O=C(O)C(=Cc1cc2c(cc1[N+](=O)[O-])OCO2)c1cc2c(cc1Br)OCO2	i	0%
c1ccc(C2CC2)c(OCC2=NCCN2)c1	-27%	-16%
COc1ccc(-c2nc(S(=O)(=O)c3ccccc3)c(N3CCCCC3)o2)cc1	-1%	8%
N#Cc1ccc(C(=O)OCc2cccc(S(=O)(=O)N3CCOCC3)c2)cc1	-12%	-14%
CC(C)COC(=O)N1CCCCC1c1cc(C(=O)NCc2ccccc2)no1 (centres undefined)	i	-3%
CCCCCOc1ccc(C(=O)NCCC(=O)NCCCC(=O)OCC)cc1	-10%	-5%
COc1ccc2c(c1OC)C(=O)N(c1ccc(O)cc1)C2	4%	8%
CCC1Cc2[nH]c(=S)[nH]c(=O)c2C(c2ccc(F)cc2)O1 (centres undefined)	7%	-5%
COC(=O)[C@]12CCCCC=C1N(CCc1ccc(OC)c(OC)c1)C(=O)[C@H](CC(=O)N1CCN(C(=O)C3CC3)CC1)C2	24%	-2%
CN1OC[C@@H]2CN(S(=O)(=O)c3ccccc3)[C@H](c3ccccc3Br)C[C@@H]21	12%	5%
CC(C)(C)OC(=O)N[C@@H](COCc1ccccc1)C(=O)N[C@@H](CO)[C@H](O)[C@@H]1C[C@@H]1C(=O)NC1CCCCC1	i	-16%
COCCn1c(SCC(=O)Nc2ccc(Cl)c(S(=O)(=O)N(C)C)c2)nc2ccccc21	-12%	?
COc1ccccc1C1CCN(C(=O)c2cccc([N+](=O)[O-])c2)CC1	-16%	4%
Cc1cc(-n2c(C)cc(C(=S)N3CCOCC3)c2C)ccc1Br	?	-14%
O=C(NCc1ccccc1)c1cc(-c2cccc(O)c2)on1	-8%	-14%
CCOc1ccc(C2C=C(c3ccccc3)Nc3nnnn32)cc1 (centres undefined)	-7%	-11%
CCCC(c1nnnn1CCOC)N1CCN(Cc2ccccc2)CC1 (centres undefined)	-12%	-2%
O=C(NCC1COc2ccccc2O1)C1C2C=CC3(CN(Cc4ccccc4Cl)C(=O)C13)O2 (centres undefined)	-15%	-9%
Cc1cc(C)n(-c2nc3ccccc3nc2N2CCN(S(=O)(=O)c3cccc(C#N)c3)CC2)n1	-2%	-5%
O=C(NC(C(=O)N/N=C/c1ccncc1)c1n[nH]c(=O)c2ccccc12)c1ccccc1 (centres undefined)	2%	-12%
CCCCn1c(N)c(N(CCOC)C(=O)COC(=O)C(C)(C)Oc2ccc(Cl)cc2)c(=O)[nH]c1=O	-15%	-4%
Next results
SMILES	Vaccinia mCherry	Vaccinia Venus
O=C(COc1ccc(Br)cc1)N1CCN(Cc2c[nH]c3ccccc23)CC1	14µM*	?
C/C(=N\NC(=O)c1cccc(S(=O)(=O)N2CCCC2)c1)c1ccc(F)cc1	-3%	-17%
COc1ccc(N=C2S/C(=C\c3cc(C)n(C)c3C)C(=O)N2CC(C)C)cc1	?	-7%
Cc1cccc(NC(=O)CSc2c(C)cnc3c2c(=O)n(C)c(=O)n3C)c1C	-4%	-2%
Cc1ccc(-c2nc3c(c(=O)c4ccccc4n3C)c(=O)n2-c2ccc(F)cc2)cc1	i	-11%
CC(=O)N(C)c1ccc(NC(=O)c2ccco2)cc1	0%	6%
O=C(/C=C/c1ccco1)Nc1ccc2c(c1)OCCO2	-22%	-11%
COc1ccc(S(=O)(=O)NCC2CCC(C(=O)NCC(OC)OC)CC2)cc1 (centres undefined)	1%	2%
Cc1cc(C)cc(C(=O)NCC(=O)NCc2ccc(S(N)(=O)=O)cc2)c1	-19%	-9%
O=S(=O)(NCCc1ccccc1)c1ccc(F)cc1Br	-4%	-6%
CC1C(=O)CCN(C(C)(C)C)C1C (centres undefined)	.	-11%
CCOC(=O)C=Cc1ccc(C(=O)OCC)[nH]1	?	?
COc1ccccc1CNC(=O)c1cc(S(=O)(=O)N2CCCCCC2)cn1C	-9%	-8%
CN(C)S(=O)(=O)c1cccc(C(=O)Nc2ccccc2C(=O)NC2CC2)c1	34%[activator]	-15%
CC(=O)Nc1nc(-c2cccc3ccccc23)cs1	-14%	-13%
CCOc1ccccc1OCCCC(=O)NC1=NCCS1	-16%	5%
CC(=O)Nc1ccc(S(=O)(=O)NCC(=O)OCC(=O)N2CCN(c3ccccc3)CC2)cc1	-10%	-13%
Cc1cc(C)n(-c2ccc(C(=O)Nc3ccccn3)cc2)n1	-6%	-16%
Cc1nn(C)c(C)c1S(=O)(=O)N1CCC(C(=O)NC2CCCCC2)CC1	1%	9%
Cc1cc(C)nc(NC(N)=NC2CCCCC2)n1	-14%	-27%
Cn1c(Cn2cnc(Cl)c2Cl)nc2ccccc21	.	-14%
Cn1c(-c2cnn(-c3ccccc3)c2N)n[nH]c1=S	i	-4%
O=C(COC(=O)/C=C/c1ccc(F)cc1)NC1CCS(=O)(=O)C1 (centres undefined)	-2%	-1%
COc1ccc(CCN(C)C(=S)Nc2cccc(C)c2)cc1OC	i	-4%
N#Cc1c[nH]n2c(NC3CCCCC3)c(-c3ccccc3F)nc12	?	?
O=C(Cn1nnc(-c2ccccc2)n1)N=Nc1c(O)[nH]c2ccccc12	-7%	-14%
CCOC(=O)N1CCC(NC(=O)c2cccn3c(=O)c4cc(Br)ccc4nc23)CC1	-16%	-11%
Cc1c(C#N)c(NC(=O)c2cccc(Cl)c2)n(Cc2ccccc2)c1C	-9%	-12%
O=C1c2ccccc2-c2c1nc1c([n+]2[O-])CCCC1	-12%	-8%
CC(=O)NC(c1cccs1)c1cc([N+](=O)[O-])c2cccnc2c1O (centres undefined)	?	?
O=NN(CCc1ccncc1)c1ccc(OCc2ccccc2)cc1	-25%	-25%
CC(C)CCn1c(N2CCOCC2)nc2c1c(=O)n(CC(N)=O)c(=O)n2C	.	-23%
Cc1sc2ncnc(NCC(C)(C)N3CCOCC3)c2c1C	.	?
C=C1N(C)c2cc([N+](=O)[O-])c(N)cc2C1(C)C	12%	-16%
Cc1cc(C)nc(Sc2nc(Cl)nc(N(c3ccccc3)c3ccccc3)n2)n1	-18%	-8%
C=CCOC(=O)C1=C[C@@H](c2csc3ccccc23)[C@H](CCCO)[C@@H](OCC)O1	i	-10%
CCOc1ccc(-c2cc3c(=O)n(Cc4nc(-c5ccc(OC)cc5OC)oc4C)ccn3n2)cc1Cl	-17%	-4%
O=[N+]([O-])c1ccc(S(=O)(=O)Nc2ccncc2)cc1	-9%	-7%
O=C(COc1ccccc1)Nc1nc(-c2ccncc2)cs1	i	-21%
CC1(C)C[C@@H]1C(=O)N/C(=C\CCCCSC[C@H](N)C(=O)O)C(=O)O	-11%	-9%
COc1ccc(-n2nc3c(c2NC(=O)c2ccccc2S(=O)(=O)C(F)F)CS(=O)(=O)C3)cc1	-9%	-6%
Cc1nc2ccc(Br)cn2c1C(=O)N/N=C\c1ccccc1[N+](=O)[O-]	-8%	-7%
Nc1nc(SCc2ccc([N+](=O)[O-])cc2)c2ncn(C3OC(CO)C(O)C3O)c2n1 (centres undefined)	-30%	-19%
CC1CN(C(=O)NCc2ccccc2)c2cc(Cl)ccc2O1 (centres undefined)	-4%	-5%
COC(=O)c1cc2ccsc2n1CC(=O)N1CCCc2ccccc21	i	-1%
CCc1ccc(N2C(=O)Nc3ccc(Br)cc3C2(O)C(=O)NCCN(C)C)cc1 (centres undefined)	-13%	-14%
CCOc1cc(/C=C(\C#N)C(N)=O)ccc1OS(=O)(=O)c1ccccc1	-19%	-7%
Cc1cccc(OC(C)C(=O)Nc2ccc3c(c2)OCCO3)c1 (centres undefined)	-9%	-16%
O=C(OC1Cc2c(O)cc(O)cc2OC1c1cc(O)c(O)c(O)c1-c1c(C2Oc3cc(O)cc(O)c3CC2O)cc(O)c(O)c1O)c1cc(O)c(O)c(O)c1 (centres undefined)	i	-5%
Cc1cc2c(n1-c1ccc(C(=O)NCCc3ccc(Cl)cc3)cc1)CCC(C)C2 (centres undefined)	-7%	-4%

Source: PubChem
